# miR-21 reporter: qHTS Assay for Modulators of miRNAs and/orActivators of miR-21; HeLa miR-21 FLuc reporter, luciferase, 48 h; Potency, µM (titrated, usually from 38.3 µM), for inactives: top-dose reporter change, positive = more light; 340,000 tested, under 10 active; AID 2288, 2010; active = well fitted rising curve with a large enough effect; inconclusive = small, poorly fitted or top-dose-only effect; inactive = no such curve, though single readings can be large or run the other way;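 also: % of control where 0% means no effect; miR-21 action dims this reporter so a rising signal means less miR-21 action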
#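 Luminescence from a firefly luciferase reporter carrying a miR-21 binding site downstream, stably expressed under a CMV promoter in HeLa cells that make miR-21 endogenously, reports miRNA modulation after 48 h compound exposure up to approximately 40uM final.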
# GLA inh pH 4.5: qHTS Assay for Inhibitors of Human alpha-Galactosidase at pH 4.5. purified enzyme, 4-MU-alpha-Gal fluorescence, pH 4.5. activity change, negative = inhibition, % at 105 µM. 230,000 tested, under 10 active. AID 1467, 2008; inconclusive = small, poorly fitted or top-dose-only inhibition, or a rising curve; inactive = flat fitted curve, though single readings scatter; no compound was filed as active;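 also: 0% = full activity with enzyme and -100% = basal without enzyme; dose as in the result columns while the protocol names 77 µM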
# Rango-impB inh: qHTS Assay for Inhibitors of Rango (Ran-regulated importin-beta cargo) - Importin beta complex formation | Potency, µM (top dose mostly 92.2 µM), for the others: top-dose inhibition of complex formation | Rango CFP/YFP FRET sensor + importin beta, 45 min | 340,000 compounds, 0.031% hits; active = rising FRET ratio curve, often small or poorly fitted; inconclusive = mostly compound fluorescence or quenching in the first reads; inactive = flat curves in all reads;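 also: potency is read from the fitted curve at half-maximal effect; 0% = DMSO wells and 100% = buffer wells lacking importin beta; nearly all actives have a fitted effect of over 15% in size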
# Target sequence (Q14974 whole entry, looked up): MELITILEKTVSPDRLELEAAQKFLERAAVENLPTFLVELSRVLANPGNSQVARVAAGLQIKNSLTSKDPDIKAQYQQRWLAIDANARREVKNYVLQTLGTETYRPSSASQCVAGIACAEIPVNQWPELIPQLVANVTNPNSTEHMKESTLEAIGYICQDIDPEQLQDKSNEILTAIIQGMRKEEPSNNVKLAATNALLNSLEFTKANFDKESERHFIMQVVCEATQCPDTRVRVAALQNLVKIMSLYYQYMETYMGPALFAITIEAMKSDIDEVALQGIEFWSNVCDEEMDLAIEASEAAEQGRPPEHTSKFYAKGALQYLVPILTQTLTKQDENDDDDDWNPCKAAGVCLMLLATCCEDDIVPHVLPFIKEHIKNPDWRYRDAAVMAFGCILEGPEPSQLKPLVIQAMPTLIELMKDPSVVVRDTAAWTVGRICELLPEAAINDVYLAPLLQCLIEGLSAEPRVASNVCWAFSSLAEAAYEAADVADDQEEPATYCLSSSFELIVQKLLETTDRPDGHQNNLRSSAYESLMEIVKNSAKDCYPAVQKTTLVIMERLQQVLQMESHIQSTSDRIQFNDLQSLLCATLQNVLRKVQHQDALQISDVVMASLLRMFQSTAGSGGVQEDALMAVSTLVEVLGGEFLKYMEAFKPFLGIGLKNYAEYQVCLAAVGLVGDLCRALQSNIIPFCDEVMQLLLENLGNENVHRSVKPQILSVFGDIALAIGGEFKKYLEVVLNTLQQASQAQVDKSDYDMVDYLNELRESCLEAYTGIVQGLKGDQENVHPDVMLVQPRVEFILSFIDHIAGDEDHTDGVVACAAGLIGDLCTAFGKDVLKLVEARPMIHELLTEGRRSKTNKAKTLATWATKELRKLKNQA
#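 Inhibition scored from the CFP 486 nm/YFP 530 nm FRET ratio 45 min after adding 0.125 microM importin beta to 50 nM Rango biosensor preincubated 5 min with compound (room temperature, PBS with DTT, Tween-20, BSA). No-importin wells as positive control.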
# Rango dissoc inh: qHTS Assay for Inhibitors of RanGTP induced Rango (Ran-regulated importin-beta cargo) - Importin beta complex dissociation | Potency, µM (series often up to 46.1 µM), inactives show at the top dose activity change, negative = inhibition | Snurportin-1 (Homo sapiens) + GTP-binding nuclear protein Ran (Homo sapiens) + Importin … | 340,000 compounds, 0.071% hits | Biochemical FRET Rango-importin beta, RanGTP-induced dissociation; active means falling FRET ratio curve, often poorly fitted, with flat reads before Ran was added; inconclusive means other falling curves, or compound fluorescence or quenching; inactive means flat or rising ratio curve;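 also: potency is read from the fitted curve at half-maximal effect; % of control where 0% means no effect; nearly all actives have a fitted effect of over 45% in size; -100% = wells without RanGTP and RCC1; the record marks most hits as doubtful in a second field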
#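 Quantitative HTS using a FRET biosensor: 0.1 uM Rango, 0.25 uM importin beta, 0.6 uM Ran, 2 mM GTP, 0.2 uM RCC1 final, PBS with DTT, Tween-20 and BSA. Post-read taken 45 min after Ran addition.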
# * marks the source's active call; other numbers are inactive results; ? = inconclusive; / = no result given; & = joins results of further samples. A portion of the library; the hit share may differ from the screen's.
no.	molecule	miR-21 reporter	GLA inh pH 4.5	Rango-impB inh	Rango dissoc inh
1	CC(C)(C)n1nnnc1C(c1cccnc1)N1CCN(C2CCCCC2)CC1 (configuration not stated)	1%	0	-1.7%	-2%
2	Cc1ccc2nc(NC(=S)NC(=O)c3cccs3)sc2c1	-64%	-11	-1.2%	17%
3	Cc1ccc2nc(SCC(=O)Nc3ccc4c(c3)OCO4)nc(=O)n2c1	/	/	-2.0%	-6%
4	CCC1CCCCN1C(=O)c1c(-c2ccccc2)noc1C (configuration not stated)	-8%	3	-0.7%	-1%
5	Cc1ccc(C(=O)O)cc1-c1ccc(/C=C2\SC(=O)N(CC(=O)Nc3ccc4c(c3)OCO4)C2=O)o1	2%	/	?	?
6	O=C1N(Cc2cccnc2)C[C@@H]2C[C@@H](c3cccc(OC4CCCC4)c3)N3CCC[C@@]123	2%	-2	0.0%	3%
7	CN(c1nc2c(c(=O)n(C)c(=O)n2C)n1CC(=O)c1ccccc1)C1CCCCC1	-14%	7	0.1%	-17%
8	CC(=O)c1ccc(NC(=O)COC(=O)CCc2ccc(S(=O)(=O)N3CCOCC3)cc2)cc1	-6%	0	4.9%	-5%
9	Cc1cc(C(=O)OC(C(=O)Nc2cccc(C(F)(F)F)c2)c2ccccc2)c(C)o1 (configuration not stated)	1%	-14	-4.1%	8%
10	COC(=O)c1ccc(OCCOc2ccccc2C)cc1	-24%	/	-2.9%	3%
11	COC(=O)Cn1cc(C#N)c2ccccc21	-4%	1	2.9%	-2%
12	CC(=O)N1N=C(c2ccc(C)cc2)OC1c1cccnc1 (configuration not stated)	-54%	1	-5.3%	21%
13	O=C(COC(=O)c1ccc([N+](=O)[O-])o1)Nc1ccc(Br)cc1F	/	/	0.3%	-10%
14	COc1cnn(-c2ccc(C)cc2)c(=O)c1Cl	-45%	7	-3.6%	-6%
15	Cc1ccc(C(=O)OCC(=O)NC2CCCCC2)cc1S(=O)(=O)N1CCCCC1	/	/	3.7%	-1%
16	CCOc1ccc(C(=O)NC2C(=O)N3C(C(=O)O)=C(COC(C)=O)CSC23)cc1OCC (configuration not stated)	/	/	-1.0%	0%
17	COc1ccccc1-c1ccc(/C=C2/C=C(CC(C)C)OC2=O)o1	-8%	2	?	?
18	CCCCN1C(=O)C(C#N)CC2=C1CC(C)(C)CC2=O (configuration not stated)	/	/	-0.8%	12%
19	CCc1nccn1CCC(=O)NC1CC(C)(C)Cc2c1cnn2-c1ccc(OC)cc1 (configuration not stated)	-4%	/	-1.1%	1%
20	CCOC(=O)C1=C(C)Nc2ccccc2N=C1NC(=O)C(c1ccccc1)c1ccccc1	-4%	-2	-2.3%	-16%

# Full records, quoted from the list. Order of screens: miR-21 reporter | GLA inh pH 4.5 | Rango-impB inh | Rango dissoc inh
# COc1ccccc1-c1ccc(/C=C2/C=C(CC(C)C)OC2=O)o1 in the list: -8% | 2 | ? | ?
# Cc1ccc(C(=O)OCC(=O)NC2CCCCC2)cc1S(=O)(=O)N1CCCCC1 in the list: / | / | 3.7% | -1%
# CC(C)(C)n1nnnc1C(c1cccnc1)N1CCN(C2CCCCC2)CC1 (configuration not stated) in the list: 1% | 0 | -1.7% | -2%

# Later entries.
no.	molecule	miR-21 reporter	GLA inh pH 4.5	Rango-impB inh	Rango dissoc inh
21	Cc1ccc(-c2c(C)sc(=NC(=O)c3ccco3)n2C)cc1	-23%	-6	1.3%	1%
22	COc1ccc(-c2noc(CN3CCN(C(=O)c4cccs4)CC3)n2)c(OC)c1OC	0%	/	0.9%	?
23	CCCc1cc(=O)[nH]c(SCC(=O)c2c(N)n(C3CC3)c(=O)[nH]c2=O)n1	/	/	-2.0%	13%
24	O=C(c1cc(COc2ccc(F)c(F)c2)on1)N1CCSCC1	-57%	/	-0.2%	22%
25	CC(=O)Nc1ccc(NC(=O)CN2C(=O)COc3ccc(S(=O)(=O)N4CCCCC4)cc32)cc1	5%	/	-0.7%	-4%
26	COc1ccc(CNC(=S)NC2CCCCC2)cc1	-9%	/	-1.3%	-5%
27	NC(=O)c1cnn2c(-c3ccc(Cl)cc3Cl)ccnc12	0%	/	-2.7%	2%
28	O=C(CCn1nc(-c2ccccc2)ccc1=O)N1CCN(c2ccccn2)CC1	-4%	3	0.5%	15%
29	Cc1oc(-c2ccccc2F)nc1CS(=O)CC(=O)NC1CCCC1 (configuration not stated)	0%	/	2.9%	1%
30	CCOC(=O)C1CCN(C(=S)NC2CCCC2)CC1	3%	0	-3.3%	-4%
31	Cc1cc(C)cc(NC(=O)CCCCCN2C(=O)[C@@H]3Cc4ccccc4CN3C2=O)c1	-5%	/	-0.9%	21%
32	CC(=O)Nc1ccc2c(c1)Cc1c-2cc(Cl)c(NC(C)=O)c1Cl	/	/	-3.8%	-1%
33	CN(C(=O)c1cccc(N2C(=O)C3C4C=CC(C4)C3C2=O)c1)C1CCCCC1 (configuration not stated)	-3%	/	-0.6%	1%
34	COCC(=O)NC1(c2nnnn2CCOC(=O)Nc2ccc(Cl)cc2)CCCCC1	-10%	9	-1.5%	9%
35	C=CCN(CC=C)C(=S)Nc1ccc2nsnc2c1	19%	0	?	?
36	Cc1ccc2oc(=O)c(-c3ccc(O)cc3)c(C)c2c1	/	/	-5.4%	8%
37	O=C(NCCCN1CCCC1=O)c1ccc(Cl)c(Cl)c1	2%	8	-0.6%	0%
38	COc1ccc2c(Cl)c(C(=O)N/N=C/c3ccncc3)sc2c1	-1%	/	0.6%	20%
39	CCC(C)[C@H](NC(=O)N1CC(=O)Nc2ccccc21)C(=O)NC(C)CCc1ccccc1 (some centres not stated)	5%	/	-4.4%	-15%
40	CC(=O)Nc1ccc(NC(=O)CN2CCN(c3cccc(C(F)(F)F)c3)CC2)cc1	8%	3	-0.2%	9%
41	COc1ccc(NC(=O)c2ccc3c(c2)OCO3)cc1	-26%	/	-3.4%	0%
42	CCOc1cc(/C=N/NC(=O)CSc2nncn2C)ccc1OCC(N)=O	-5%	-2	-2.0%	-3%
43	Cc1cc(-c2nnco2)c(C)n1-c1ccc(F)cc1	-43%	4	-2.3%	11%
44	O=C(O)c1cccc(N2C(=O)Nc3ccccc3N2O)c1	-15%	-7	0.3%	?
45	O=[N+]([O-])c1cccc(/C(=N/N=C/c2ccccc2Br)C23CN4CN(CN(C4)C2)C3)c1	-5%	0	0.5%	7%
46	CC(C)CNS(=O)(=O)c1cc(C(=O)N2CCOCC2)c(Cl)cc1Cl	0%	8	-1.5%	2%
47	COc1cccc(C(=O)Nc2ccc3c(c2)CCCN3C(=O)c2cccs2)c1OC	11%&3%	/	3.9%	6%
48	CCOc1ncccc1C(=O)NCC1COc2ccccc2O1 (configuration not stated)	-22%	12	-3.2%	13%
49	CCOC(=O)C1=C(COC(=O)C2(C)CC2(Cl)Cl)NC(=O)NC1c1ccc(OC)cc1 (configuration not stated)	-7%	1	3.8%	-13%
50	COc1cc(C(=O)NNC(=S)NC(=O)c2ccc3c(c2)OCO3)cc(OC)c1OC	16%	-1	-0.7%	-7%
51	C/C(=N\n1cnnc1)c1ccccc1	0%	-4	2.2%	7%
52	COc1ccccc1OCC(=O)NNC(=O)c1c(-c2ccccc2Cl)noc1C	-2%	-9	1.1%	2%
53	Cc1ccc(NNC(=O)C(=O)N2CCCCC2)cc1	10%	1	1.4%	-7%
54	COc1cc(C(=O)OCC(=O)NC(=O)NC2CCCCC2)cc(Cl)c1OC	/	/	0.9%	9%
55	Cc1cc(C)c(NC(=S)N(CCCN2CCOCC2)Cc2cccnc2)c(C)c1	-2%	0	-2.9%	-8%
56	Cc1cc(C)c2sc(N(CCN(C)C)C(=O)c3c(F)cccc3F)nc2c1	2%	-14	-1.1%	1%
57	Cc1nn(Cc2ccccc2)c(C)c1/C=N/NC(=O)c1ccncc1	-1%	-7	2.2%	12%
58	CCOC(=O)c1ccc(NC(=O)c2cn(-c3ccccc3)nc2-c2ccncc2)cc1	30%	4	1.8%	17%
59	CN(CC(=O)Nc1cc(S(=O)(=O)N2CCOCC2)ccc1Cl)C1CCS(=O)(=O)C1 (configuration not stated)	1%	-2	-4.5%	-13%
60	CCc1c(C)c2cc(Cl)c(O)c(CN(C)C)c2oc1=O	-2%	?	?	?

# Arranged by molecular weight (lowest first): some entries from above.
no.	molecule	miR-21 reporter	GLA inh pH 4.5	Rango-impB inh	Rango dissoc inh
43	Cc1cc(-c2nnco2)c(C)n1-c1ccc(F)cc1	-43%	4	-2.3%	11%
48	CCOc1ncccc1C(=O)NCC1COc2ccccc2O1 (configuration not stated)	-22%	12	-3.2%	13%
55	Cc1cc(C)c(NC(=S)N(CCCN2CCOCC2)Cc2cccnc2)c(C)c1	-2%	0	-2.9%	-8%

# Next section.
no.	molecule	miR-21 reporter	GLA inh pH 4.5	Rango-impB inh	Rango dissoc inh
61	COC(=O)C(NC(=O)c1ccco1)(Nc1nc(C)cs1)C(F)(F)F (configuration not stated)	-3%	0	1.9%	14%
62	Cc1cccc(NC(=O)CSc2ccc(-c3ccco3)nn2)c1C	0%	1	0.4%	10%
63	CCOC(=O)CNC(=O)N1CCCC(Cc2ccccc2)(C(=O)OCC)C1 (configuration not stated)	/	/	0.0%	1%
64	CC(C(=O)NC1CCCC1)N(C(=O)CS(=O)CC(=O)Nc1ccc(F)cc1)c1ccc2c(c1)OCCO2 (configuration not stated)	-8%	12	-0.6%	2%
65	Cc1nc(COc2ccc(C(=O)NCc3ccccc3CN3CCCCC3)cc2)cs1	/	/	0.4%	-5%
66	CCN(CC)C(=O)C1=C(C)NC(=S)NC1c1cccs1 (configuration not stated)	-1%	5	-0.4%	-3%
67	CC(C)(CN1CCOCC1)NS(=O)(=O)c1ccccc1	2%	/	1.1%	0%
68	O=C(CCSc1ccccc1)NCCSc1ccccn1	-11%	-4	-1.6%	2%
69	Cc1ccc2[nH]c(=O)c(CN(Cc3ccco3)C(=O)c3cccs3)cc2c1	-1%	0	/	/
70	CCNc1cc2c(cc1O)CCC1C2CCC2(C)C(O)CCC12 (configuration not stated)	/	/	-0.1%	-5%
71	CCOC(=O)c1ccc(Nc2ncccc2[N+](=O)[O-])cc1	-41%	4	-2.3%	22%

# Some of these compounds in order of the miR-21 reporter value, lowest first.
no.	molecule	miR-21 reporter	GLA inh pH 4.5	Rango-impB inh	Rango dissoc inh
24	O=C(c1cc(COc2ccc(F)c(F)c2)on1)N1CCSCC1	-57%	/	-0.2%	22%
41	COc1ccc(NC(=O)c2ccc3c(c2)OCO3)cc1	-26%	/	-3.4%	0%
38	COc1ccc2c(Cl)c(C(=O)N/N=C/c3ccncc3)sc2c1	-1%	/	0.6%	20%
6	O=C1N(Cc2cccnc2)C[C@@H]2C[C@@H](c3cccc(OC4CCCC4)c3)N3CCC[C@@]123	2%	-2	0.0%	3%
50	COc1cc(C(=O)NNC(=S)NC(=O)c2ccc3c(c2)OCO3)cc(OC)c1OC	16%	-1	-0.7%	-7%

# Screens (PubChem BioAssay)
